# TRPML1 inh – human mucolipin-1 channel inhibition | Q9GZU1 | TRPML1-inducible cells, Ca2+ dye fluorescence, FDSS; active compounds read low; inhibition of EC80 agonist-evoked calcium signal | activity change, negative = inhibition, % (concentration not given with the values) | 0.02% of 390,000 active | AID 624415; in the data active means activity change below about -50%; inconclusive means about -30% to -50%; inactive means above about -30%;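 also: stimulus is agonist 54-4 at its EC80 concentration; % is scaled to controls: 0 for no effect and ±100 for the full control effect; the text of the record puts the active cut at -80%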
#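 TRPML1-DL cells, Tet-induced overnight (~16 h, 37 °C) at 1,500 cells/well, were loaded with Ca8 no-wash dye plus quencher for 45-90 min at room temperature. Compounds were pinned during FDSS kinetic reading; agonist 54-4 at EC80 (4 uM final) then added.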
# Sfp inh – Sfp phosphopantetheinyl transferase inhibition | Biochemical Sfp PPTase activity, qHTS | 3.5% of 310,000 active | AID 1490 | Q9F4F7 | Potency, µM, without a hit: max response, negative = inhibition, hits mostly inhibitors; active = well fitted inhibition curve with a large enough effect; inconclusive = small, poorly fitted or top-dose-only effect, or another doubt; inactive = no such curve, though single readings can be large or run the other way;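 also: the enzyme is Sfp with the accession as filed and its product quenches rhodamine fluorescence; potency is read from the fitted curve at half-maximal effect; 0% = enzyme reaction without inhibitor and -100% = no enzyme wells; top concentration of the series not given in the record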
#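 Fluorescence-quenching assay with 15 nM Sfp, 5 uM rhodamine-CoA and 12.5 uM BHQ-2-labelled ybbR peptide in pH 7.6 Hepes/MgCl2 buffer. Enzyme was pre-incubated with compound for 15 min at room temperature. Rate was taken from the 30-min fluorescence change (525/598 nm).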
# TRPML1 agonist – human mucolipin-1 channel agonism; TRPML1-expressing cells, Ca2+ dye fluorescence, FDSS; host cell line not named in the record; reference of the full effect not given here; AID 624414; 0.12% of 410,000 active; activation, % (no concentration beside the values); in the data active = activation above about 50%; inconclusive = about 30% to 50%; inactive = below about 30%; also: 0% is about no effect; the text of the record puts the active cut at 80%
#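 In this qHTS format, compounds were pin-transferred onto Ca8-dye-loaded TRPML1-DL cells induced with Tet overnight, and intracellular Ca2+ fluorescence was recorded kinetically for 110 s after a 10 s baseline. A subsequent 4uM final 54-4 (EC80) addition followed by a second 110 s read served as the antagonist phase.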
# TRPV1 potentiator – enhances activation of the human vanilloid receptor TRPV1. AID 540277. potentiation, % at 8.33 µM. Q8NER1. 0.02% of 320,000 active. TRPV1-expressing cells, Fluo-8 calcium influx, capsaicin EC20 potentiation; host cell line not named in the record; control for the full effect not named in the record; active means potentiation above 80%; inconclusive means 30% to 80%; inactive means below 30%; also: 0% is about no effect
# Target sequence (Q8NER1 whole entry, looked up): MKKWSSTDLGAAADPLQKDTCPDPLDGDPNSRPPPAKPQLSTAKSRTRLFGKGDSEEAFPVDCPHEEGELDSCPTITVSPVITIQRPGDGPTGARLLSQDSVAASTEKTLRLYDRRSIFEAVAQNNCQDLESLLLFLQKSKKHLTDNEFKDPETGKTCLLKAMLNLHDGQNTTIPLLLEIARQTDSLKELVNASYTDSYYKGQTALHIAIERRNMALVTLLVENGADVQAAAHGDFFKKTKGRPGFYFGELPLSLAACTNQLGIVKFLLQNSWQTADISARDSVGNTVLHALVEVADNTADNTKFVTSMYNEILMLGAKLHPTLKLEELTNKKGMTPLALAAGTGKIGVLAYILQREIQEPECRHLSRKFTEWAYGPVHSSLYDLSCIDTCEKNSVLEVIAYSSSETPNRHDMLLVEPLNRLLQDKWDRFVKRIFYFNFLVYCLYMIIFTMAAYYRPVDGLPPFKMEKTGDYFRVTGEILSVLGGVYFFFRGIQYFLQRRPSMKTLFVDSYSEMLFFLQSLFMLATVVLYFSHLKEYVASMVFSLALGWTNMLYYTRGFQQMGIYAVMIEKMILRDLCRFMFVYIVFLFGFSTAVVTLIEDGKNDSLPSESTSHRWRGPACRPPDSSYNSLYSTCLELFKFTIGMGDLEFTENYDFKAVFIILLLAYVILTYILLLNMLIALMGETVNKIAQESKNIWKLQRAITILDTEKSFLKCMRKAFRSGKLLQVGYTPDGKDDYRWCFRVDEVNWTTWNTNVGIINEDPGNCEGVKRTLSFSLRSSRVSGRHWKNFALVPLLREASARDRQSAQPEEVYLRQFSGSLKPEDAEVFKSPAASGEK
#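 Cells expressing TRPV1 were dye-loaded with Fluo-8 and read kinetically: 10 s baseline, 3 min after compound (agonist portion), then 2 min after EC20 capsaicin (allosteric enhancer portion). Calcium-bound dye fluorescence at 480/520 nm.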
# PINK1 expr mod – changes PINK1 expression; PINK1 immunofluorescence, high-content cytometry, 24 h; Potency, µM (top dose mostly 76.6 µM), for the others: top-dose activation (PINK1 increase), actives largely listed as activators; 0.2% of 410,000 active; active = well fitted activation curve with a large enough effect; inconclusive = small, poorly fitted or top-dose-only effect; inactive = flat fitted curve, though single readings scatter; cell line not stated here;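 also: potency is read from the fitted curve at half-maximal effect; % of control where 0% means no effect; nearly all actives have a fitted effect of over 65% in size; a mitochondrial uncoupler was the plate control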
#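 Decision-based qHTS: stable cells, 24 h exposure to five compound concentrations, CCCP as control. Fixed cells stained for PINK1 plus nuclear, mitochondrial and cell markers, cytometer read.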
# ClpP mod – qHTS Assay for Activators of ClpP | ATP-dependent Clp protease proteolytic subunit (Bacillus subtilis (strain 168)), P80244 | Potency, µM (highest dose often 57.5 µM), for inactives: top-dose activity change, negative = active | 1.9% of 340,000 active | purified B. subtilis ClpP, FRET peptide cleavage, 20 min | AID 651965, 2013; active = well fitted falling curve with a large enough effect; inconclusive = small, poorly fitted or top-dose-only effect; inactive = no such curve, though single readings can be large or run the other way; also: potency is read from the fitted curve at half-maximal effect; the source files actives as falling curves though it sought activators and does not explain the sign; nearly all actives have a fitted effect of over 65% in size; many hits overshoot -100%
# Target sequence (P80244 whole entry, looked up): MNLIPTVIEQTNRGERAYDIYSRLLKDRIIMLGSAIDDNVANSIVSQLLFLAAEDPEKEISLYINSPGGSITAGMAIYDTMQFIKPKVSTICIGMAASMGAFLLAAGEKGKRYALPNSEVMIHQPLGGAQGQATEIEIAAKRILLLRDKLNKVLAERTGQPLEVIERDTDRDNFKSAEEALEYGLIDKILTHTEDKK
#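 ClpP 10 microg/mL final, pH 8 Tris/KCl buffer with BSA, glycerol, Tween-20; compound pinned in; FRET-FV substrate; RT 20 min; Ex320/Em430; ΔFRET vs ADEP 5.8 microM, DMSO, no enzyme.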
# Menin MLL FP FL – inhibitors of human menin-MLL interaction, wild-type MLL peptide | 290,000 tested, under 10 active | FP activity change, % at 61.4 µM | Fluorescence polarization, fluorescein-MLL peptide displacement from menin | AID 1766; inconclusive = falling polarisation curve, or a change in total fluorescence; inactive = total fluorescence flat and polarisation flat or rising; no compound was filed as active; the % refers to the polarisation; negative = inhibition;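 also: % of control where 0% means no effect; inhibitors lower the polarisation; unlabelled MLL peptide was the positive control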
# The depositor's hits bear a star; ? = inconclusive; / = not tested or not shown; & = joins results of further samples; [ ] = remark or other dose.
# Screens in order: TRPML1 inh	Sfp inh	TRPML1 agonist	TRPV1 potentiator	PINK1 expr mod	ClpP mod	Menin MLL FP FL
COc1cc2c(cc1OC)C(c1ccsc1)CC(=O)N2 (configuration not stated)
→ -5.3	7.5%	-0.7	-3.0	1.0%	?	-1.4
Cc1cc(/N=C/C=C2\N(C)c3ccccc3C2(C)C)n(CCC#N)n1
→ 4.8	7.4%	1.1	-25.8	5.8%[38.3 µM]	-1.8%	2.2
O=C(COc1ccc(S(=O)(=O)N2CCCC2)cc1Cl)N1CCN(c2ccccc2)CC1
→ -6.8	-9.8%	0.1	3.9	-2.8%[38.3 µM]	0.3%	0.5
C=C[C@](C)(O)CCC=C(C)C
→ /	12.8%	/	/	0.4%	/	2.5
CC1CCCN(CCCNC(=O)CN2C(=O)CSc3ccc(S(=O)(=O)N4CCOCC4)cc32)C1 (configuration not stated)
→ 27.0&-2.5	7.2%	-0.1&0.1	-5.1	-1.5%&-1.1%	-0.1%&-2.4%	0.6
CC(=O)c1ccc(N2CCN(S(=O)(=O)c3ccc4c(c3)CC(=O)N4)CC2)cc1
→ -10.2	18.1%	-0.3	6.6	0.3%	-26.8%	5.2
C=CCNC(=O)c1onc(CSc2cccc(OCC)c2)c1C(=O)O
→ 16.3	15.7%	-0.7	7.2	-0.1%	3.1%	1.1
COc1ccccc1NC(=O)CCC(=O)Nc1ccccc1OC
→ -5.8	3.1%	0.6	-3.3	-1.5%	-1.4%	4.1
CCc1nc2sc3c(c2c(=O)o1)CCCC3
→ -13.9	25.1µM*	0.5	15.0	-1.2%	-2.5%	3.6
COc1ccc(/C=C/C(=O)NCC(=O)N/N=C/c2cc(Br)ccc2OC)cc1
→ -14.1	17.9%	2.2	?	16.4%[38.3 µM]	-3.9%	-0.5
CCc1cccc(C)c1NC(=O)C1CCCN(S(C)(=O)=O)C1 (configuration not stated)
→ 5.8	-0.4%	-0.3	1.3	0.2%	/	0.6
CCOC(=O)CCCCCC(=O)Nc1ccc2c(c1)CC(=O)N([C@@H](C)CO)C[C@H](C)[C@@H](CN(C)Cc1ccccc1)O2
→ -12.6	/	-0.6	/	0.6%	-2.1%	/
O=C(NC1CC2CCCC(C1)N2C(=S)Nc1ccccc1Cl)C1CC1 (configuration not stated)
→ 47.8	19.6%	-0.5	1.4	0.7%	/	/
CC1(C(=O)NS(=O)(=O)c2cccc(Cl)c2)CCN1C(=O)Cc1ccc(-c2ccccc2)cc1 (configuration not stated)
→ /	/	-0.8	/	-0.3%	-1.2%	/
O=C(COc1ccccc1)Nc1nnc(S(=O)(=O)Nc2ccccc2)s1
→ 4.1&0.9	19.5%	-0.5&0.7	14.7	1.4%&-0.1%	2.2%&0.1%	-2.5
O=C(CCS(=O)(=O)c1cc(Br)cc2c1N(C(=O)C1CC1)CC2)NCc1ccccc1Cl
→ 9.6	/	-0.3	/	-0.5%	-0.5%	/
Cc1c(C(=O)OCC(=O)Nc2ccc(S(N)(=O)=O)cc2)oc2c1ccc1ccccc12
→ ?	13.1%	-0.2	0.7	6.4%	-0.2%	/
COc1cccc(NC(=S)NNC(=O)CCn2cc([N+](=O)[O-])cn2)c1
→ -7.0	16.0%	-0.9	2.3	0.3%	/	3.8
S=C(Nc1ccccc1)Nc1ccccc1Br
→ 9.3	-13.7%	0.2	/	1.1%	/	-9.0
CCc1ccc(N2C(=O)CN(Cc3ccccc3)C2=S)cc1
→ /	2.3%	/	-24.9	-1.0%	0.0%	1.3
Cc1cccc(C)c1NC(=O)NC1(C(=O)NCC2CCCO2)CCCCC1 (configuration not stated)
→ -1.0	3.9%	0.9	-1.9	3.9%	/	-0.3
O=C(CSc1ccc(-c2ccccn2)nn1)Nc1cccc(F)c1
→ 8.9	8.1%	-0.2	7.1	-1.1%	1.5%	/
CC(C)CCNC(=O)CN1C(=O)CSc2ccc(S(=O)(=O)N3CCCCC3)cc21
→ -0.6	/	1.6	/	1.7%	0.0%	/
N#Cc1ccc(C(=O)CN2CCN(c3ccccc3)CC2)cc1
→ -7.9	-3.3%	-0.7	2.2	?	/	/
C=CCN1CCN(C(=O)c2ccc3c(c2)OCO3)CC1
→ 3.6	14.1%	-0.4	-28.1	-0.2%	0.3%	/
CCOC(=O)C1CCN(S(=O)(=O)c2cc(-c3onc(C)c3C)ccc2OC)CC1
→ 10.8	/	1.2	/	-0.3%	-2.6%	/
CC(C)Sc1snnc1-c1ccccc1
→ 2.1	11.3%	2.3	-9.3	1.6%	/	-0.5
CC(=O)Nc1nc(C2CC2)cc(-c2ccccc2)c1C#N
→ 9.3	9.6%	-0.2	9.1	0.1%	/	1.7
Cc1nnc(SCC(=O)NNC(=O)COc2ccc(Cl)cc2)s1
→ 5.6	6.0%	-0.3	11.4	1.4%	-2.8%	-3.9
COc1ccc(CCNC(=O)CSc2cc(=O)[nH]c(N)n2)cc1OC
→ -16.9	6.3%	-0.1	-1.8	-0.3%	-1.0%	0.8
CC(C)c1nc2oc3c(NCc4ccccn4)ncnc3c2c2c1COC(C)(C)C2
→ -18.7	/	1.2	/	-1.0%	/	/
CC(C)(C)c1csc(N/N=C/c2ccc(O)cc2)n1
→ -13.4	-29.3%	1.4	?	6.4%	-7.2%	-3.8
COc1ccc(CN2CC(=O)N(c3ccc(C)cc3C)C2=S)cc1OC
→ 8.3	-19.1%	2.0	-11.3	9.0%	/	0.4
CC(NS(=O)(=O)c1ccc(Cl)cc1)C(=O)OCC(=O)Nc1ccc(N(C)C)cc1 (configuration not stated)
→ 18.3	/	0.7	-42.2	-7.3%	0.7%	/
CC1(C)CC2(C)CC(=O)C1C(C(=O)O)C2C(=O)O (configuration not stated)
→ -4.0	/	0.0	/	0.4%	1.2%	/
CC(=O)SCC(=O)N=c1sc2cc(F)ccc2n1C
→ -7.5	7.1%	-0.4	12.6	10.3%	?	1.7
C=CCc1cc(OC)ccc1OCCN(C)Cc1ccccc1
→ 17.8	50.1µM*	0.2	0.0	?	/	0.5
CCc1cc2c(NCCO)ncnc2s1
→ 1.5	9.9%	-0.5	-8.2	-0.1%	-26.9%	0.1
CCN1CCN(C2=C(NS(=O)(=O)c3ccccc3)C(=O)c3ccccc3C2=O)CC1
→ -11.7	7.3%	0.5	8.0	0.7%	0.1%	/
COc1cccc(C(=O)NC(C)C(c2cccs2)N2CCN(C)CC2)c1 (configuration not stated)
→ 1.3	6.5%	1.0	1.1	3.2%[38.3 µM]	-0.2%	0.9
CCOC(=O)CC1CCCCN1Cc1nc(-c2ccc(F)c(OC)c2)oc1C (configuration not stated)
→ 14.2	8.7%	-0.2	-4.5	1.1%	/	11.0
COC(=O)c1cc(C(=O)OCC(=O)N(C)c2ccccc2)cc([N+](=O)[O-])c1
→ 17.1	20.2%	-0.2	3.9	0.4%	/	-0.4
COCC(=O)NC1CC2CCCC(C1)N2Cc1ccccc1 (configuration not stated)
→ -6.2	13.1%	1.6	-0.6	1.7%	-0.9%	-0.7
CCN(CC)c1ccc(NC(=O)C2CCCN(S(=O)(=O)c3cnc[nH]3)C2)c(C)c1 (configuration not stated)
→ 1.7	-26.8%	-0.3	10.9	2.1%	-2.7%	-0.4
O=C(Cc1c(Cl)cccc1Cl)OCc1ccccn1
→ 5.6	13.0%	0.8	-10.7	1.2%	/	1.1
CC(C)(C)OC(=O)N1Cc2cc3ccccc3nc2C1CO (configuration not stated)
→ -15.0	16.0%	0.7	-21.5	-0.7%	-2.7%	4.2
Cc1ccc(O)c(C=Nc2cc(C)ccc2O)c1
→ 10.6	-8.3%	-0.3	12.6	2.7%	-1.1%	/
O=C1C2CCCCN2C(=O)N1CCCCN1CCN(c2cccc(C(F)(F)F)c2)CC1 (configuration not stated)
→ -10.8	/	0.1	/	0.8%	/	/
CCCCSc1nnc(-c2ccc(C)cc2)n1C
→ 4.7	8.6%	-0.2	9.5	-0.3%	-1.0%	0.9
COc1ccc(Br)cc1C1CC(=O)Nc2c1c(C)nn2-c1nc(C)cc(C)n1 (configuration not stated)
→ -2.5	/	-0.7	/	0.1%	-2.5%	/
CC1(NC(=O)CN2CCN(c3cnn(-c4ccccc4)c(=O)c3Cl)CC2)CCS(=O)(=O)C1 (configuration not stated)
→ -7.0	/	0.2	4.2	2.1%	1.2%	/
O=C(O)Cn1cnc2c(oc3ccccc32)c1=O
→ 25.2	21.8%	0.5	2.8	-0.5%	/	-7.2
O=C(CCc1ccccc1)c1c(O)cc(O)cc1O
→ /	1.0%	/	?	1.7%	-1.7%	0.1
COc1cc(C)ccc1OCCSc1nc2ccc(NC(=O)c3ccc(C)cc3)cc2s1
→ -9.5	/	0.3	/	0.6%	-4.7%	/
O=C(NCCc1ccccc1Cl)C1CCC(=O)N(Cc2ccc(Cl)cc2)C1 (configuration not stated)
→ 14.2	7.2%	1.2	-6.3	2.0%	1.2%	/
CCOC(=O)c1scc(-c2ccccc2)c1S(=O)(=O)Nc1ccc(N(C)C)cc1
→ 50.1	/	3.3	/	3.0%	-3.3%	/
Cc1ccc(-c2nnc(N3CCCCC3)c3ccccc23)cc1S(=O)(=O)N1CCN(C)CC1
→ 2.0	15.5%	-0.8	-17.7	-1.5%	0.8%	4.6
COc1ccc(C2CC(=O)c3cnc(N4CCN(Cc5ccccc5)CC4)nc3C2)cc1 (configuration not stated)
→ 6.4	-21.5%	4.0	12.0	1.4%	-17.1%	-0.3
CC(=O)N1CCc2cc(S(=O)(=O)NC(CC(C)C)C(=O)NCCc3ccccc3)ccc21 (configuration not stated)
→ -8.0	/	-0.7	/	0.3%	-0.4%	/
Cc1ccc(C(=O)N2CCN(c3ccc([N+](=O)[O-])c(NCc4ccco4)c3)CC2)cc1
→ 27.5	4.0%	2.5	-3.8	0.3%	0.9%	0.6
O=C(Cn1c(NCCCO)nc2ccccc21)c1ccc(Br)cc1
→ 37.9	-18.2%	1.4	-4.1	-1.3%	-3.5%	0.5
O=C(O)Cn1ccc2ccccc21
→ 7.1	-17.7%	-0.3	-4.6	3.0%	/	0.9

# Screening data: PubChem BioAssay, National Center for Advancing Translational Sciences (NCATS)
